Screens as filed in PubChem BioAssay.
Rango dissoc inh: inhibition of RanGTP-driven Rango-importin beta dissociation. O95149+P62826. Biochemical FRET Rango-importin beta, RanGTP-induced dissociation. 340,000 compounds, 0.071% hits. Potency, µM (series often up to 46.1 µM), for the others: top-dose activity change, negative = inhibition; active means falling FRET ratio curve, often poorly fitted, with flat reads before Ran was added; inconclusive means other falling curves, or compound fluorescence or quenching; inactive means flat or rising ratio curve;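 note: potency is the fitted concentration of half-maximal effect; % of control where 0% means no effect; nearly all actives have a fitted effect of over 45% in size; -100% = wells without RanGTP and RCC1; the record marks most hits as doubtful in a second field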
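Compounds sat 5 min at room temperature with 0.1 uM Rango biosensor plus 0.25 uM importin beta, then FRET pre-read. RanGTP-RCC1 (0.6 uM Ran, 2mM GTP, 0.2 uM RCC1) added for 45 min, and the CFP/YFP post-read measured blocked complex dissociation.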
Rango complex inh: inhibitors of Rango-importin beta complex formation; Potency, µM (highest dose often 92.2 µM), inactives show at the top dose inhibition of complex formation; 340,000 compounds, 0.031% hits; Q14974; AID 540263; Rango CFP/YFP FRET sensor + importin beta, 45 min; active = rising FRET ratio curve, often small or poorly fitted; inconclusive = mostly compound fluorescence or quenching in the first reads; inactive = flat curves in all reads;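 note: potency is the fitted concentration of half-maximal effect; 0% = DMSO wells and 100% = buffer wells lacking importin beta; nearly all actives have a fitted effect of over 15% in size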
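Inhibition scored from the CFP 486 nm/YFP 530 nm FRET ratio 45 min after adding 0.125 microM importin beta to 50 nM Rango biosensor preincubated 5 min with compound (room temperature, PBS with DTT, Tween-20, BSA). No-importin wells as positive control.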
GLA inh pH 4.5: blocks human alpha-galactosidase A at pH 4.5; P06280; purified enzyme, 4-MU-alpha-Gal fluorescence, pH 4.5; activity change, negative = inhibition, % at 105 µM; 230,000 tested, under 10 active; AID 1467; inconclusive = small, poorly fitted or top-dose-only inhibition, or a rising curve; inactive = flat fitted curve, though single readings scatter; no compound was filed as active;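 note: 0% = full activity with enzyme and -100% = basal without enzyme; dose as in the result columns while the protocol names 77 µM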
Target sequence (P06280 whole entry, looked up): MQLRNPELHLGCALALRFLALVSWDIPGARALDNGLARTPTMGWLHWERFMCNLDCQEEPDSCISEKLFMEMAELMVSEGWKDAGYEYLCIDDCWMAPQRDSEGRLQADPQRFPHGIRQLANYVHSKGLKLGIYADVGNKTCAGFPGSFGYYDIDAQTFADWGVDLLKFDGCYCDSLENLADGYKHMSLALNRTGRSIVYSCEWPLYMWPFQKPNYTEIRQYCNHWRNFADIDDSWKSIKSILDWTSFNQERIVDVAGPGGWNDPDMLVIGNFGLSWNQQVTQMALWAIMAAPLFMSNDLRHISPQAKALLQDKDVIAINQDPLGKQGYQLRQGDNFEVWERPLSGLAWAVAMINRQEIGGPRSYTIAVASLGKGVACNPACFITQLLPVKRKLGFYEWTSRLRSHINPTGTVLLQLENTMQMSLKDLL
miR-21 FLuc: raises the signal of a miR-21 reporter; AID 2288; 340,000 tested, under 10 active; HeLa miR-21 FLuc reporter, luciferase, 48 h; Potency, µM (titrated, usually from 38.3 µM), for the others: top-dose reporter change, positive = more light; active = well fitted rising curve with a large enough effect; inconclusive = small, poorly fitted or top-dose-only effect; inactive = no such curve, though single readings can be large or run the other way;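 note: % of control where 0% means no effect; miR-21 action dims this reporter so a rising signal means less miR-21 action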
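HeLa cells stably expressing CMV-driven firefly luciferase with a downstream miR-21 binding sequence, endogenously expressing miR-21, were treated with titrations (up to about 40uM final) for 48 hours at 37 degree Celsius. Luciferase luminescence was read after lysis.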
An asterisk follows results filed as active; u = inconclusive; x = not tested or not shown. A portion of the library, so the mix of outcomes need not match the whole.

Rango dissoc inh,Rango complex inh,GLA inh pH 4.5,miR-21 FLuc,SMILES
u,-1.7%,4.0,-2.4%,C#CCOCCOCCOCCNc1nc(N2CCN(C(=O)C([C@@H](C)CC)n3cc(C(N)CO)nn3)CC2)nc(N2CCN(C(=O)[C@H](CCC(=O)O)n3cc(C(N)CC(C)C)nn3)CC2)n1 (some centres not stated)
14.0%,0.0%,x,8.8%,O=C(CCNC(=O)C1CCN(S(=O)(=O)c2ccccc2)CC1)NCc1cccc(C(F)(F)F)c1
2.7%,0.1%,x,2.2%,O=C(NCC1CC1)c1ccccc1Cl
-5.2%,5.8%,x,x,O=C(O)C[C@H]1c2ccccc2S(=O)(=O)N1c1ccccc1
-8.7%,0.1%,x,x,CC(NC(=O)CN1C(=O)NC(C)(C2CC2)C1=O)c1ccc(F)cc1 (configuration not stated)
-13.5%,2.7%,4.3,-0.7%,Cc1cc(C)nc(SCNC(=O)c2ccc(Cl)cc2)n1
8.2%,u,u,14.0%,CCCCCNC(=O)c1ccc2c(=O)n(CC3CCCO3)c(=O)[nH]c2c1 (configuration not stated)
-5.4%,-2.6%,-0.6,-1.7%,Cc1cccc(C(=O)NCc2nnc(SCc3ccc(F)cc3)n2C)c1
-5.9%,-3.7%,-1.0,14.7%,Cc1ccc(C(=O)NCc2ccc3c(c2)OCO3)cc1S(=O)(=O)N1CCCCC1
14.6%,-3.0%,x,u,Cc1ccc(NC(=O)c2nc(S(=O)(=O)Cc3ccccc3)ncc2Cl)cc1
u,u,u,u,CCc1ccc(C2=NN(c3ccc(S(N)(=O)=O)cc3)C(c3ccc(F)cc3)C2)cc1 (configuration not stated)
-13.5%,1.7%,-9.8,-3.3%,Cc1cccc(C)c1NC(=S)N=Nc1c(O)n(C)c2ccc(S(=O)(=O)N3CCOCC3)cc12
2.2%,0.2%,4.9,5.4%,O=C(NNc1cc(Cl)ccc1Cl)c1cccnc1Cl
5.6%,-0.7%,-2.2,-20.9%,Fc1ccc(CSc2nnc(-c3cnccn3)n2Cc2ccco2)cc1
-14.4%,-0.8%,4.4,4.4%,COc1cc(S(=O)(=O)NCc2ccncc2)c(OC)cc1Cl
16.1%,-0.4%,3.0,-11.4%,CCCCNC(=O)Cc1ccc(Br)cc1
15.7%,-0.3%,x,1.4%,Nc1nc(SCC(=O)N2CCCCC2)[nH]c(=O)c1NC(=O)c1ccccc1F
15.6%,1.4%,1.8,2.2%,COc1cc(/C=N/NC(=O)C2COc3ccccc3O2)cc(OC)c1OC (configuration not stated)
9.0%,-2.5%,-3.4,-1.7%,O=C(c1cn(-c2ccccc2)nc1-c1ccc(F)cc1)N1CCCCC1
-1.5%,1.8%,x,x,CCOC(=O)c1c2c(n(C)c1C)C(=O)C(=O)c1ccc(Br)cc1-2
23.7%,2.6%,-4.3,1.3%,CCOC(=O)/C(C#N)=C/c1cccn1-c1ccc(Cl)cc1
-2.1%,-0.1%,-16.8,-2.3%,CCN(Cc1ccccc1)C(=O)C(C)OC(=O)c1cc(S(=O)(=O)Nc2c(C)n(C)n(-c3ccccc3)c2=O)ccc1C (configuration not stated)
1.1%,-5.6%,0.6,-38.5%,CCn1cnc2cc(NCc3cccc(OC)c3O)ccc21
-3.0%,1.4%,x,-15.5%,O=C1CCc2cc(S(=O)(=O)NCc3ccccc3Cl)cc3c2N1CC3
4.7%,2.4%,-7.2,-8.8%,COC(=O)c1ccc(Oc2ccc3nnc(C)n3n2)cc1
-3.4%,1.7%,0.7,-5.9%,CCCCCC(=O)Nc1ccc(S(=O)(=O)Nc2nccc(C)n2)cc1
-1.3%,-0.1%,3.3,-2.3%,Cc1nnsc1-c1nnc(SCC(=O)c2ccc(C#N)cc2)n1C1CC1
7.5%,-0.8%,-1.8,-25.0%,Oc1ccc(/C=N/Nc2ncnc3c2ncn3Cc2ccccc2)cc1O
-3.9%,1.5%,-17.2,-1.1%,O=C(Cn1cc([N+](=O)[O-])cn1)N1CCc2ccccc21
0.9%,0.4%,x,x,CCC(CO)Oc1cc(NCc2cccc(O)c2)c2ncn(C(C)C)c2c1 (configuration not stated)
4.8%,-0.7%,-1.9,-2.6%,CCC(=O)N(Cc1cc2ccc(C)cc2n2nnnc12)C1CCCCC1
-1.9%,-1.5%,x,0.4%,CSc1ncccc1C(=O)NC(C)CCc1ccccc1 (configuration not stated)
-4.1%,-1.3%,-4.6,-17.3%,COc1ccc(-c2ccc(SCC(=O)c3ccc(F)cc3)nn2)cc1OC
0.7%,1.5%,0.8,-9.3%,COc1ccc(S(=O)(=O)NC2CCCCC2)cc1C
7.3%,-4.0%,-4.8,13.8%,CCc1nc(SCC(=O)Nc2ccc(OC)cc2[N+](=O)[O-])n[nH]1
10.2%,3.5%,0.2,3.6%,O=C(CC(C(=O)O)C1CCCO1)Nc1cccc(C(F)(F)F)c1 (configuration not stated)
2.8%,-0.9%,-4.4,-7.0%,COCCOC(=O)c1c(NC(=O)CN2CCOCC2)sc(C(N)=O)c1C
-16.6%,7.5%,x,-0.3%,COc1cc(/C=C2\SC(=S)N(CCC(=O)Nc3ccccn3)C2=O)cc(OC)c1OC
3.8%,3.6%,-7.9,-3.3%,CCOC(=O)c1cccnc1SC(CC)C(=O)NCc1ccco1 (configuration not stated)
6.4%,6.3%,8.1,0.4%,COc1n[nH]c(C(=O)Nc2cc(F)ccc2C)c1[N+](=O)[O-]
8.4%,0.5%,2.4,1.6%,CC1Cn2c(nnc2-c2ccccc2O)S1 (configuration not stated)
-6.5%,2.5%,9.1,1.7%,O=C(c1ccncc1)N1CCN(C2CCC(c3ccccc3)CC2)CC1 (configuration not stated)
24.3%,0.2%,x,x,O=C(COC(=O)c1cccs1)Nc1ccc(Cl)cn1
10.9%,3.4%,-6.9,4.5%,O=C(CSc1ccc(-c2ccccn2)nn1)NCc1ccc(Cl)cc1
0.3%,7.2%,-12.7,-5.3%,COCCNC(=O)CSc1nc2sc(C)c(C)c2c(=O)n1-c1ccccc1
-19.7%,-1.7%,x,-0.4%,COC(=O)COc1cccc(NC(=O)C(c2ccccc2)c2ccccc2)c1
-15.6%,-1.2%,x,-1.0%,Cc1cc(C)n(S(=O)(=O)c2ccc(C)c(C)c2)n1
-1.8%,-1.8%,-6.9,-2.3%,CCOc1ccccc1NC=C1C(=O)OC2(CCCCC2)OC1=O
1.2%,-0.1%,x,-1.1%,CN(C(=O)c1ccc(F)cc1)c1ccccc1C(=O)NCc1ccccc1
-12.6%,3.9%,x,x,CCCN(C(=O)COC(=O)COc1c(C)cccc1C)c1c(N)n(Cc2ccccc2)c(=O)[nH]c1=O
-3.7%,2.3%,x,-3.2%,CN(C)C(=O)c1ccc(NC(=O)COc2cccc(Oc3ccccc3)c2)cc1
-6.0%,-0.7%,8.6,-4.5%,Cc1cccc(CN2CCN(Cc3cccc4nonc34)CC2CCO)n1 (configuration not stated)
7.6%,-4.4%,-5.0,10.6%,CC1CCCN(CCCOc2ccccc2-c2ccccc2)C1 (configuration not stated)
2.8%,2.3%,-3.2,19.7%,O=C(CSC1=NCCN1)NC1CCCCCC1
-1.6%,-0.2%,-9.6,2.6%,COc1ccccc1C(=O)NC(=O)CSc1cccc[n+]1[O-]
-16.2%,-0.2%,x,x,CCC1(c2ccc(F)cc2)NC(=O)N(CC(=O)NC2CCCCCC2)C1=O (configuration not stated)

Two compounds drawn at random from those above, as already listed:
Rango dissoc inh,Rango complex inh,GLA inh pH 4.5,miR-21 FLuc,SMILES
-1.3%,-0.1%,3.3,-2.3%,Cc1nnsc1-c1nnc(SCC(=O)c2ccc(C#N)cc2)n1C1CC1
-2.1%,-0.1%,-16.8,-2.3%,CCN(Cc1ccccc1)C(=O)C(C)OC(=O)c1cc(S(=O)(=O)Nc2c(C)n(C)n(-c3ccccc3)c2=O)ccc1C (configuration not stated)

Other results follow.
Rango dissoc inh,Rango complex inh,GLA inh pH 4.5,miR-21 FLuc,SMILES
-9.5%,0.2%,x,-3.3%,O=c1c2c3c(sc2nc(NCCO)n1-c1ccccc1)CCCC3
1.8%,2.8%,x,9.5%,CCC(CO)(CO)N(CC(=O)Nc1ccc(OC)cc1)CC(=O)Nc1ccc(OC)cc1
-1.9%,-0.5%,-4.9,u,FC(F)(F)c1cccc(NC(=S)NC(c2ccccc2)c2ccccc2)c1
11.8%,9.7%,-15.4,0.3%,COCCN1CCN(Cc2cn(C)nc2-c2ccc(Oc3ccccc3)cc2)CC1
-14.6%,-2.2%,x,-9.1%,CCCCCCCOc1ccc(C2(C)NC(=O)NC2=O)cc1 (configuration not stated)
3.0%,3.6%,x,-4.9%,COc1ccccc1CCN1CCCC(CN(C)CC(C)(C)CO)C1 (configuration not stated)
12.9%,2.4%,x,x,O=C(CCCCn1ccc(=O)[nH]c1=O)Nc1ccc(C(=O)O)c(O)c1
-14.8%,-0.3%,-16.3,-2.3%,COc1cc(/C=N/N2CCN(C3c4ccccc4-c4ccccc43)CC2)ccc1O
0.4%,-0.2%,-3.7,-30.3%,COc1ccc(C(=O)n2nc(C)cc2Nc2ccccc2)cc1
2.0%,-2.8%,x,-0.8%,O=C(CCN1C(=O)/C(=C\c2ccccc2)SC1=S)Nc1ccc(C(=O)O)cc1
9.2%,0.9%,x,2.3%,O=C(CN1CCN(c2ccc(F)cc2)CC1)c1ccc(O)cc1O
9.8%,-1.6%,-2.6,20.9%,Cc1ccccc1NS(=O)(=O)c1cc(C(=O)NCCSC2CCCCC2)ccc1C
16.3%,-3.3%,-0.1,0.1%,Cc1cc(NC(=O)CSc2nnc(-c3ccncc3)n2-c2ccccc2)no1
15.1%,0.1%,x,-37.5%,COc1cc(CNc2ccc3[nH]c(=O)[nH]c3c2)ccc1OCc1ccc(Cl)cc1
35.0%,-1.2%,x,x,Cc1ccc(NC(=O)CNC(=O)c2ccc(Oc3ccccc3)cc2)nc1
6.0%,-0.4%,-0.1,u,COc1ccc(-c2cc(C(F)F)n3ncc(C(=O)N4CCc5ccccc54)c3n2)cc1

Single entries from the entries so far.
Cc1cc(NC(=O)CSc2nnc(-c3ccncc3)n2-c2ccccc2)no1 in miR-21 FLuc reads 0.1%
COc1ccc(C(=O)n2nc(C)cc2Nc2ccccc2)cc1 in GLA inh pH 4.5 reads -3.7
O=C(CCN1C(=O)/C(=C\c2ccccc2)SC1=S)Nc1ccc(C(=O)O)cc1 in Rango dissoc inh reads 2.0%

The list goes on.
Rango dissoc inh,Rango complex inh,GLA inh pH 4.5,miR-21 FLuc,SMILES
-14.0%,-0.9%,x,x,CC(C)(C)OC(=O)C[C@@H]1C/C=C\C[C@@H](CC(=O)NCCO)C(=O)N[C@H](C(C)(C)C)COC1=O
-2.0%,-1.1%,x,x,O=C(NCc1cccc(F)c1)c1cccc2c1C(=O)c1ccc(Cl)cc1S2(=O)=O
-2.5%,2.9%,x,x,Cc1ccc(OCC(=O)Nc2ccc(-n3cnnn3)cc2)c(C)c1
10.0%,1.1%,2.2,-18.5%,O=C(NCC1CCCO1)c1ccc(Cl)c(F)c1F (configuration not stated)
20.6%,3.5%,-15.3,-15.8%,COC(=O)Cc1ccc(NC(=S)Nc2cccc(C)n2)cc1
-15.4%,1.4%,7.1,16.3%,S=C(NCCSCc1c(Cl)cccc1Cl)Nc1ccccc1
-18.4%,u,4.5,-1.3%,CN(C[C@@H](Cc1cccc2ccccc12)N(C[C@H](Cc1ccccc1)N(CCc1ccccc1)N=O)N=O)N=O
-3.7%,7.6%,-1.8,-0.7%,COC(=O)CC1=Nc2ccccc2NC(=O)C1
-1.1%,-0.8%,-2.3,-0.2%,O=C(CCN1C(=O)c2ccccc2C1=O)Nc1ccccc1C(=O)N1CCOCC1
3.3%,-4.3%,1.7,-1.2%,O=c1c(Cc2ccc(F)cc2)c(O)ccn1C1CCCCC1
-7.8%,4.6%,x,x,CC(C)(C)[C@H]1COC(=O)[C@H](NC(=O)OCC2c3ccccc3-c3ccccc32)C/C=C\C[C@@H](CC(=O)N[C@H](CO)Cc2ccccc2)C(=O)N1
